RGS16-Gao: modulators of RGS16 binding to Galphao, primary screen, biochemical, human proteins, multiplexed bead flow cytometry; bead-based flow cytometry RGS16-Galphao binding, fluorescence; actives lie on both sides; 220,000 compounds, 0.38% hits; binding response (% of control), % at 10 µM; Regulator of G-protein signaling 16 (Homo sapiens) + Guanine nucleotide-binding protein …; AID 1441, 2008;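 active = below 25% or above 175%, edge rows of some plates excepted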;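 note: Galphao activated by GDP with aluminum fluoride before binding; 100% = wells without compound and 0% = beads without RGS; some results beyond the cut were filed as inactive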
Target sequence (O15492 whole entry, looked up): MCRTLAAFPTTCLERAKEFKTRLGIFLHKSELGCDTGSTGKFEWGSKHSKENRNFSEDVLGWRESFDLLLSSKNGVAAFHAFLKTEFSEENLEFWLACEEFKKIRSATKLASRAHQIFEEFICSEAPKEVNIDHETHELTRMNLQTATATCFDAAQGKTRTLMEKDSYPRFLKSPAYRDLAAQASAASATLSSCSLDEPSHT
Target sequence (P09471 whole entry, looked up): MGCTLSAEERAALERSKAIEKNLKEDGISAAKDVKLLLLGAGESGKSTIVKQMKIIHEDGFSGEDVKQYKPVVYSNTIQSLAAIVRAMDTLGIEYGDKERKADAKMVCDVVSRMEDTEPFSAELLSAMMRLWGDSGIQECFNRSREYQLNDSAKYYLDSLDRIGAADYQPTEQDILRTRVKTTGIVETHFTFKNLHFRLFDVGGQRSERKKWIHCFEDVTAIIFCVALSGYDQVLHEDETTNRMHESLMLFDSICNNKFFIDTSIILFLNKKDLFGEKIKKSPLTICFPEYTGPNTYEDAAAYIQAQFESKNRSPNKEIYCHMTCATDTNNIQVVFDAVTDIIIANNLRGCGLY
HSV replic up: enhancers of HSV replication in host cells, fold increase, host cell viability | HSV replication augmentation in cells | maximum fold increase | 220,000 compounds, 0.005% hits;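 active = peak rise of 1.5-fold or more in the series; tested in PC3 cells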;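 note: first round at 10 µM; read as green reporter fluorescence; hits show the peak of a series up to 25 µM; 1 = signal of infected wells without compound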
Insulin prom inh: inhibitors of insulin promoter-driven GFP, primary screen, imaging, TRM-6 cells (human fetal islet line), eGFP reporter, cell count; reporter expression induced with tamoxifen; inhibition, % at 2 µM; 130,000 compounds, 0.9% hits;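 active = inhibition above the mean plus 3 SD, with well images judged a real hit on visual review, cut at about 60% in these data, passing the limit was not always enough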
GALR2 agonist: GALR2 receptor agonists, primary screen, cell-based. activation, %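 (tested at 5 µM)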. 140,000 compounds, 0.48% hits. GALR2-expressing cells, agonist activation read-out. AID 803, 2007;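 active = above mean plus 3 SD of all compounds, about 5% in these data, not always enough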;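 note: 0% = vehicle buffer wells and 100% = reference agonist at full effect; tested in CHO reporter cells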
Target sequence (O43603 whole entry, looked up): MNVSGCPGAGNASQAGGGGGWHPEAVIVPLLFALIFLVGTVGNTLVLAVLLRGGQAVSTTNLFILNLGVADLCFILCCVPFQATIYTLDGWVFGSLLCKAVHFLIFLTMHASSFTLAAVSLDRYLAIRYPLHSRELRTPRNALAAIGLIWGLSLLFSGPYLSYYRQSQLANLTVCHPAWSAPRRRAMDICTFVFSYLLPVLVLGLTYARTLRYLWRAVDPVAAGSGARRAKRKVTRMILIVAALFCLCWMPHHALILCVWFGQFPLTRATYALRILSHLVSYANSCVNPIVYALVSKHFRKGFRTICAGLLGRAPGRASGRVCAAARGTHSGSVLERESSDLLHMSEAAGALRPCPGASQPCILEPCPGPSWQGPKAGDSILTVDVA
PKD1 inh: inhibitors of human PKD1 kinase, biochemical, fluorescence polarization. Serine/threonine-protein kinase D1 (Homo sapiens), Q15139. PKD1 kinase fluorescence polarization assay. inhibition, %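 (about 10 µM by stock and volumes)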. 200,000 compounds, 0.056% hits. AID 797, 2007;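 active = inhibition of 50% or more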;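 note: controls were vehicle for no effect and a reference inhibitor for full effect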
Insulin prom inh cell count: recorded beside Insulin prom inh, whose call it bears; normalized cell count, %; measured here: cell count, toxicity; reference of the scale not given here;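 cells exposed to compound for 48 h; stained nuclei by imaging scaled within each plate; lower means fewer cells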
HSV replic up primary fold: further read-out of HSV replic up, marked with its call; fold increase; compound at 10 µM; measured here: primary screen fold increase 10 uM; tested in PC3 cells;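 GFP signal in the first replicate; 1 = infected wells without compound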
Active calls of the source: *; i = inactive; · = no result given; & = joins results of further samples.

Every second line gives: Insulin prom inh | RGS16-Gao | Insulin prom inh cell count | GALR2 agonist | HSV replic up primary fold | PKD1 inh | HSV replic up
- NC(N)=Nc1ccc(N=C(N)N)cc1
→ · | 134 | · | · | 0.93 | · | i
- COc1cccc(C(=O)CC(=O)C(=O)Nc2cc(Cl)c(OC)cc2OC)c1
→ -17 | 100 | 110 | · | 1.1 | -8 | i
- CC1CCc2c(sc3nc(CN4CCN(S(=O)(=O)c5ccccc5[N+](=O)[O-])CC4)[nH]c(=O)c23)C1 (centres undefined)
→ · | 37 | · | -1.0 | 1.1 | -5 | i
- CC(C)CCOc1ccc(/C=C2\CCn3c2nc2cc(C(=O)O)ccc2c3=O)cc1
→ · | 102 | · | · | 0.92 | -3 | i
- O=C(CCS(=O)(=O)c1ccccc1)N1CCOCC1
→ -33 | 103 | 124 | · | 0.89 | -7 | i
- CN1C(=O)CC(C(=O)Nc2ccccc2F)SC1=Nc1ccc2c(c1)OCO2 (centres undefined)
→ · | 104 | · | · | 0.85 | 5 | i
- CCOC(=O)C1C2C=CC3(CN(Cc4ccccc4)C(=O)C13)O2 (centres undefined)
→ 0 | 98 | 103 | · | 0.87 | -1 | i
- CCN1C(=O)C(CC(=O)Nc2ccc(OC)cc2)N(Cc2cccs2)C1=S (centres undefined)
→ 0 | 98 | 94 | -2.0 | 0.78 | 13 | i
- Cc1cc(=O)oc2cc(OCc3cc4c(cc3Cl)OCO4)ccc12
→ 22 | 93 | 80 | -1.1 | 0.7 | -10 | i
- COc1cc(-c2nc(-c3ccncc3)no2)cc(OC)c1OC
→ -8 | 103 | 38 | 0.0 | 1.1 | -2 | i
- N#Cc1ccc(Cl)cc1NC(=O)COC(=O)c1ccc2c(c1)OCCO2
→ 7 | 104 | 126 | -0.7 | 1.1 | 5 | i
- N#Cc1cccc(NC(=O)COC(=O)c2ccccc2Sc2ccccc2C#N)c1
→ · | 111 | · | -0.6 | 0.85 | -4 | i
- C/C=C\C=C\C(=O)Nc1cccc(C2=NOC3(C2)C[C@@H](C(N)=O)N(C(=O)C(c2ccccc2)c2ccccc2)C3)c1 (some centres undefined)
→ · | 100 | · | · | 0.89 | · | i
- Cc1ccc(-n2cc[nH]c2=S)cc1C
→ -22 | 53 | 61 | -0.1 | 0.91 | 5 | i
- COc1cccc(Cn2cc(C(=O)NCCN(C)C)nn2)c1
→ 20 | 98 | 89 | · | 1 | 2 | i
- CC1(C)CC(=O)C(C(=S)Nc2ccc(F)cc2)=C(NCCN2CCOCC2)C1
→ -20 | 105 | 85 | -0.1 | 1 | 1 | i
- Cc1ccc(/C=C/C(=O)Nc2nnc(SCc3ccc(C#N)cc3)s2)o1
→ 19 | 100 | 110 | -2.4 | 0.95 | -6 | i
- COCCOc1cc(N(CC(=O)N(C)C)S(=O)(=O)c2ccccc2)c(Cl)cc1Cl
→ · | 98 | · | · | 1.2 | -3 | i
- Cc1nc2ccc(NC(=S)N3CCCC3)cc2nc1C
→ · | 111 | · | · | 0.6 | -1 | i
- O=C(Cc1nnc(NC(=O)Nc2ccc(F)cc2)s1)Nc1ccccc1
→ · | 106 | · | · | 1.1 | -4 | i
- NS(=O)(=O)c1cccnc1Nc1cccc(Cl)c1
→ 50 | 84 | 136 | -0.4 | 0.95 | 6 | i
- CCN(CC)C(=O)c1[nH]cnc1C(=O)N[C@@H](CC(C)C)C(=O)OC(C)(C)C
→ · | 101 | · | · | 0.78 | -3 | i
- Cc1cccc(N2C(=O)C(CC(=O)Nc3cccc(F)c3)N(CCc3ccncc3)C2=O)c1 (centres undefined)
→ · | 80 | · | · | 1 | -9 | i
- Cc1cccc(-n2nnc(C(=O)NCc3ccco3)c2N)c1
→ · | 108 | · | -0.4 | 0.96 | -14 | i
- COc1ccc2cc(C(c3nnnn3CCc3ccccc3)N3CCC(O)CC3)c(=O)[nH]c2c1 (centres undefined)
→ 17 | 102 | 100 | -1.3 | 1 | -15 | i
- Cc1c(C(=O)/C=C/N(C)C)nnn1-c1ccc(F)c(Cl)c1
→ · | 108 | · | · | 1.4 | · | i
- CC(C)C[C@H](NC(=O)CCn1nnc2ccccc2c1=O)C(=O)O
→ · | 104 | · | · | 1.1 | · | i
- CN1CCN(NC(=O)CN2C(=O)S/C(=C\c3c(Cl)cccc3Cl)C2=O)CC1
→ · | 112 | · | · | 0.95 | -2 | i
- O=C(NC(NC(=S)Nc1ccc(Cl)cc1)C(Cl)(Cl)Cl)c1ccco1 (centres undefined)
→ · | 73 | · | -0.3 | 0.84 | 1 | i
- COc1cc(/C=C/C(=O)OCC(=O)N2CCC(Cc3ccccc3)CC2)ccc1O
→ -31 | 142 | 70 | -1.5 | · | -4 | ·
- CCC(CC)C(=O)N1CCCC(c2nc(-c3cccs3)no2)C1 (centres undefined)
→ · | 91 | · | 0.0 | 0.98 | -4 | i
- O=C(CS(=O)(=O)c1cn(Cc2cccc(F)c2)c2ccccc12)N1CCOCC1
→ · | 113 | · | -2.3 | 1 | 6 | i
- CCOC(=O)N1CCN(C(=O)c2cccn3c(=O)c4c5c(sc4nc23)CCCC5)CC1
→ · | 99 | · | · | 0.93 | -3 | i
- O=C(COC(=O)CNC(=O)c1cccc([N+](=O)[O-])c1)Nc1ccccc1OC(F)F
→ · | 94 | · | -1.3 | 1.1 | -9 | i
- CCN(C(=O)CN1CCN(c2ccccc2O)CC1)c1c(N)n(Cc2ccccc2)c(=O)[nH]c1=O
→ 43 | 104 | 122 | -1.5 | 0.86 | -1 | i
- CCO[C@H]1OC(C(=O)NC2CC2)=C[C@@H](c2ccccc2)[C@@H]1CCCO
→ · | 107 | · | · | 0.72 | · | i
- C=CCn1c(-c2ccc(F)cc2)n[nH]c1=S
→ 21 | 100 | 154 | · | 0.95 | 1 | i
- COc1ccccc1C1C(C(N)=O)=C(C)Nc2ncnn21 (centres undefined)
→ -31 | 97 | 117 | -2.3 | 0.85 | -2 | i
- Cc1cccc2cc(C(c3nnnn3Cc3ccc4c(c3)OCO4)N3CCCC3)c(=O)[nH]c12 (centres undefined)
→ · | 104 | · | -1.8 | 0.99 | -7 | i
- O=C(Nc1ccc2c(c1)OCO2)N1CCN(Cc2ccco2)CC1
→ · | 101 | · | · | 1.1 | 4 | i
- Cc1sccc1C1C(C#N)=C(N)SC(N)=C1C#N
→ -276 | 137 | 98 | -2.0 | · | -5 | ·
- O=C(COC(=O)CCC1CCCC1)Nc1nc2c(F)c(F)c(F)cc2s1
→ · | 38 | · | -2.3 | 1.1 | -2 | i
- CCCn1nc(C(=O)N2CCCc3ccccc32)c2ccccc2c1=O
→ · | 101 | · | · | 0.9 | 1 | i
- O=[N+]([O-])c1cccc(-c2cc3cccc[n+]3cc2-c2cccc([N+](=O)[O-])c2)c1
→ -33 | 72 | 68 | 1.6 | 0.75 | -4 | i
- O=C(CSc1nc2ccccc2c(=O)[nH]1)c1cccs1
→ -31 | 95 | 68 | -0.9 | 0.85 | 0 | i
- COc1ccc(-n2c(=O)c3c4c(sc3n(CC(=O)NCC3CCCO3)c2=O)CCCC4)c(OC)c1 (centres undefined)
→ 24 | 100 | 159 | · | 1 | -6 | i
- COc1ccc(-c2cc(C(F)(F)F)nc(SCCC(=O)N3CCN4CCCC4C3)n2)cc1 (centres undefined)
→ -43 | 98 | 66 | 0.5 | 0.87 | -2 | i
- CCOC(=O)c1nnn(-c2nc(OC)nc(N3CCCCC3)n2)c1-c1ccccc1
→ 52 | 95 | 158 | 1.0 | 0.8 | -14 | i
- CCOc1ccc(NC(=S)NCCCN2CCN(C3CCCCC3)CC2)cc1
→ -19 | 110 | 113 | 0.9 | 1 | -2 | i
- COc1ccc(CCNC(=O)c2cnn3ccccc23)c(OC)c1OC
→ · | 100 | · | -0.7 | 0.98 | 2 | i
- c1ccc(-c2cc(-c3nnc4n3N=C(c3ccc5ccccc5c3)CS4)[nH]n2)cc1
→ 4 | 102 | 91 | 1.2 | 0.59 | -11 | i
- CCOc1ccccc1C(=O)NCC(=O)O
→ 33 | 98 | 70 | · | 1.2&1.1 | 3 | i
- Cc1ccc(S(=O)(=O)N2CCN(c3ncnc4c3cnn4-c3ccccc3)CC2)cc1
→ 6 | 93 | 67 | -3.1 | 0.87 | 1 | i
- O=C(O)Cn1cc(C(=O)c2ccco2)c2ccccc21
→ · | 107 | · | -0.8 | 0.86 | 5 | i
- Cc1cc([N+](=O)[O-])cc2c1-c1ncccc1C2=Nc1ccccc1
→ 19 | 87 | 111 | -0.9 | 0.94 | 1 | i
- Cc1c(NC2=CC(=O)CC(C)(C)C2)c(=O)n(-c2ccccc2)n1C
→ · | 94 | · | · | 0.95 | 1 | i
- OC1(CNCc2cn[nH]c2-c2cc3ccccc3o2)CCCCC1
→ -44 | 144 | 77 | · | 1.3 | -1 | i
- O=C1CNC(=O)/C(=C/c2cccs2)N1
→ 8 | 91 | 79 | · | 0.8 | 7 | i
- O=c1c2cc([N+](=O)[O-])ccc2nc(CN2CCN(c3ccccn3)CC2)n1-c1ccccc1F
→ · | 97 | · | · | 1.1 | -4 | i
- COc1cc(/C=N/NC(=O)c2cccc([N+](=O)[O-])c2)ccc1O
→ · | 98 | · | · | 0.93 | -2 | i

Continued.
Every second line gives: Insulin prom inh | RGS16-Gao | Insulin prom inh cell count | GALR2 agonist | HSV replic up primary fold | PKD1 inh | HSV replic up
- COc1ccc2nc(/N=C/c3c(C)[nH]n(-c4ccc(C)cc4)c3=O)sc2c1
→ 52 | 92 | 139 | -1.1 | 1.2 | 0 | i
- CCOC(=O)N1CCN(C(=O)CSc2ccc(-c3ccc(OC)c(OC)c3)nn2)CC1
→ · | 103 | · | · | 0.98 | -3 | i
- Cc1ccc(NC(=S)N2CCN(Cc3ccccc3)CC2)cc1
→ -41 | 102 | 133 | · | 0.86 | -11 | i
- O=C(CSCc1ccc(Cl)cc1)N1CCOCC1
→ 45 | 99 | 104 | 0.0 | 0.98 | -9 | i
- CCn1c(CNc2ccccc2Cl)nnc1SCCN1CCCCC1
→ -44 | 102 | 126 | -0.8 | 0.82 | 1 | i
- O=C(COC(=O)C1CCC1)Nc1ccccc1Sc1ccccc1
→ 12 | 117 | 177 | 0.3 | 1 | -9 | i
- Cc1cc(C)nc(SCc2nnc(SCC(=O)Nc3ccc(Cl)c(C(F)(F)F)c3)o2)n1
→ 17 | 105 | 106 | -1.7 | 0.8 | 0 | i
- CC(=O)c1cccc(NC(=O)CN(C2CCCCC2)S(C)(=O)=O)c1
→ 0 | 104 | 59 | -0.1 | 0.95 | -5 | i
- Cc1ccc(Sc2ncccc2C(=O)O)cc1
→ -13 | 104 | 101 | -0.5 | 1.1 | -4 | i
- CCCCCC1CCC(c2n[nH]c(=S)n2C)CC1 (centres undefined)
→ · | 95 | · | · | 1 | 1 | i
- CC(C)c1nnc(NC(=O)CSc2ccccc2)s1
→ 50 | 105 | 120 | -1.8 | 0.85 | 4 | i
- O=C(Nc1ccc(Cl)cc1)N(CCCN1CCOCC1)Cc1cccs1
→ · | 108 | · | -0.9 | 0.84 | -13 | i
- CCCCC(=O)Nc1ccc2c(c1)nc1n2CCOC1
→ · | 101 | · | -3.5 | 0.89 | -7 | i
- O=C(O)C1CCCN1c1ncccn1 (centres undefined)
→ 22 | 106 | 47 | -0.7 | 1 | 8 | i
- CCOC(=O)C1CCN(CC(=O)N(CC(C)C)c2c(N)n(CC(C)C)c(=O)[nH]c2=O)CC1
→ 4 | 114 | 46 | · | 1 | -3 | i
- NS(=O)(=O)c1ccc(NS(=O)(=O)/C=C/c2ccccc2)cc1
→ · | 103 | · | -2.1 | 0.76 | -6 | i
- COc1cccc(CC2(CO)CCCN(Cc3sc(N4CCCC4)nc3Cl)C2)c1 (centres undefined)
→ · | 97 | · | · | 0.92 | 5 | i

Compound activity: PubChem, several laboratories
